gsp antag: qHTS for Antagonists of gsp, the Etiologic Mutation Responsible for Fibrous Dysplasia/McCune-Albright Syndrome: qHTS; Potency, µM (series often up to 76.9 µM), for inactives: top-dose activity change, negative = inhibition, hits mostly inhibitors; 340,000 compounds, 0.4% hits; gsp-mutant cells, cAMP HTRF, 30 min; control for the full effect not named in the record; active = falling curve of any shape with a large fitted effect; inconclusive = falling curve, mostly with a smaller effect; inactive = flat or rising curve; cell line not stated here;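 further: intracellular cAMP measured with PDE inhibitor Ro 20-1724 present during compound exposure; potency means the concentration at half of the fitted maximal effect; on the % scale 0 is the no-effect control and ±100 the full control effect; nearly all actives have a fitted effect of over 65% in size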
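Measurement of cellular cAMP by homogeneous time-resolved fluorescence following a 30 min compound exposure at 37C. The PDE inhibitor […] was present throughout; the assay buffer was DPBS with 0.05% BSA and 0.005% Tween 20.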
Sfp PPTase inh: qHTS Assay for Inhibitors of Bacillus subtilis Sfp phosphopantetheinyl transferase (PPTase); Biochemical Sfp PPTase activity, qHTS; 310,000 compounds, 3.5% hits; 4'-phosphopantetheinyl transferase ffp (Bacillus subtilis), Q9F4F7; Potency, µM, for inactives: max response, negative = inhibition, actives largely listed as inhibitors; AID 1490, 2009; active means well fitted inhibition curve with a large enough effect; inconclusive means small, poorly fitted or top-dose-only effect, or another doubt; inactive means no such curve, though single readings can be large or run the other way;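 further: the enzyme is Sfp with the accession as filed and its product quenches rhodamine fluorescence; potency means the concentration at half of the fitted maximal effect; 0% = enzyme reaction without inhibitor and -100% = no enzyme wells; top concentration of the series not given in the record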
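Step 1, compound plus 15 nM Sfp-PPTase, 15 min, room temperature. Step 2, add rhodamine-CoA (5 uM) and BHQ-2-YbbR (12.5 uM). Step 3, read 525/598 nm fluorescence at 0 and 30 min.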
ClpP mod: qHTS Assay for Activators of ClpP | purified B. subtilis ClpP, FRET peptide cleavage, 20 min | Potency, µM (series often up to 57.5 µM), without a hit: at the top dose activity change, negative = active | ATP-dependent Clp protease proteolytic subunit (Bacillus subtilis (strain 168)), P80244 | 340,000 compounds, 1.9% hits; active = well fitted falling curve with a large enough effect; inconclusive = small, poorly fitted or top-dose-only effect; inactive = no such curve, though single readings can be large or run the other way; further: potency means the concentration at half of the fitted maximal effect; the source files actives as falling curves though it sought activators and does not explain the sign; nearly all actives have a fitted effect of over 65% in size; many hits overshoot -100%
Target sequence (P80244 whole entry, looked up): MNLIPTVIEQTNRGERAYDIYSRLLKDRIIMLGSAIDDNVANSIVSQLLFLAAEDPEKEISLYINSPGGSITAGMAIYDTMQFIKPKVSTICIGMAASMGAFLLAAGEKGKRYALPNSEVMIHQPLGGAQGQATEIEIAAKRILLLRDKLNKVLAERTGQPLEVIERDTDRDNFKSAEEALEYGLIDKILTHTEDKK
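Buffer: 100 mM Tris/HCl pH8, 100 mM KCl, 0.05% low protease BSA, 2.5% glycerol, 0.01% Tween-20. ClpP 10 microg/mL final; 20 min RT; delta FRET normalized to ADEP and DMSO controls.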
Menin MLL FP FL: qHTS Assay for Inhibitors Targeting the Menin-MLL Interaction in MLL Related Leukemias: Competition With Fluorescein Labeled MLL-derived Peptide | Fluorescence polarization, fluorescein-MLL peptide displacement from menin | 290,000 tested, under 10 active | FP activity change, % at 61.4 µM | AID 1766, 2009; inconclusive = falling polarisation curve, or a change in total fluorescence; inactive = total fluorescence flat and polarisation flat or rising; no compound was filed as active; the % refers to the polarisation; negative = inhibition;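 further: % of control where 0% means no effect; inhibitors lower the polarisation; unlabelled MLL peptide was the positive control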
D2 agonist: Beta-Arrestin HTS for Positive Allosteric Modulators of the Human D2 Dopamine Receptor: Agonists; D(2) dopamine receptor (Homo sapiens), P14416; activation, % (no concentration beside the values); DiscoveRx PathHunter D2 beta-arrestin, luminescence, 90 min; 100% = 57 uM dopamine signal; 360,000 compounds, 0.084% hits; in the data active = activation above about 40%; inconclusive = about 15% to 40%; inactive = below about 15%; further: compound concentration not given in the record; the text of the record calls up to 30% inactive
Target sequence (P14416 whole entry, looked up): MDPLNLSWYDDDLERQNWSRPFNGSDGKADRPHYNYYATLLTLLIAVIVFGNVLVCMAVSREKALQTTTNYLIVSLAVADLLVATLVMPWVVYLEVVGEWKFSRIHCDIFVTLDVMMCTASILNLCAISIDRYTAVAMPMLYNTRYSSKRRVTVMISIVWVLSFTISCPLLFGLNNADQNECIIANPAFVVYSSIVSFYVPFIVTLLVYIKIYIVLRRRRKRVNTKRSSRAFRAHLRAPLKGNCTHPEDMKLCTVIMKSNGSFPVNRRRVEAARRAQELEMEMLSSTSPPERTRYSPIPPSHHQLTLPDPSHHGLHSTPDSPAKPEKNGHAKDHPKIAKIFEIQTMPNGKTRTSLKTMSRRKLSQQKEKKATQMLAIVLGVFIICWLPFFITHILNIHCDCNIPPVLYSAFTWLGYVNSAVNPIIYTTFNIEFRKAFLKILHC
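DiscoveRx PathHunter D2 beta-arrestin cells (2,100/well) attached overnight, then compound-stimulated 90 min at 37 C in HBSS/10 mM HEPES/0.1% Tween-20 buffer; beta-galactosidase complementation read by luminescence after 1 h at ambient temperature. Dopamine 57 uM final (EC100) as control.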
gsp ag: qHTS for Agonist of gsp, the Etiologic Mutation Responsible for Fibrous Dysplasia/McCune-Albright Syndrome: qHTS. Potency, µM (highest dose often 76.9 µM), for inactives: top-dose activation (cAMP increase), hits mostly activators. AID 624287, 2012. 340,000 compounds, 0.13% hits. gsp mutant cells, cAMP HTRF, 30 min; control for the full effect not named in the record; active = well fitted activation curve with a large enough effect; inconclusive = small, poorly fitted or top-dose-only effect, or another doubt; inactive = no such curve, though single readings can be large or run the other way; cell line not stated here;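 further: phosphodiesterase inhibitor Ro 20-1724 added with compounds to block cAMP breakdown; potency means the concentration at half of the fitted maximal effect; nearly all actives have a fitted effect of over 60% in size; about a fifth of the inactives were tested at one dose only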
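Cells stably selected in G418 were plated at 2000/well, grown 16-24 hr, then given compounds in DMSO with the PDE inhibitor […] (300 uM solution added) for 30 min at 37C; cAMP was read by HTRF.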
PINK1 expr mod: A Quantitative High throughput Screen to Identify Chemical Modulators of PINK1 Expression; PINK1 immunofluorescence, high-content cytometry, 24 h; Potency, µM (doses to about 76.6 µM), without a hit: top-dose activation (PINK1 increase), actives largely listed as activators; 410,000 compounds, 0.2% hits; AID 624263, 2012; active = well fitted activation curve with a large enough effect; inconclusive = small, poorly fitted or top-dose-only effect; inactive = flat fitted curve, though single readings scatter; cell line not stated here;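 further: potency means the concentration at half of the fitted maximal effect; % of control where 0% means no effect; nearly all actives have a fitted effect of over 65% in size; a mitochondrial uncoupler was the plate control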
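Measures PINK1 amount and localization on or inside mitochondria by immunofluorescence. Stable cells get compounds at 5 concentrations for 24 hours before fixation and staining; CCCP controls included.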
The depositor's hits bear a star; ? = inconclusive; / = no result given; & = joins results of further samples; [ ] = remark or other dose.

structure	gsp antag	Sfp PPTase inh	ClpP mod	Menin MLL FP FL	D2 agonist	gsp ag	PINK1 expr mod
Cc1c(C(=O)c2no[n+]([O-])c2C(=O)c2cnn(C)c2C)cnn1C	-8%	-20%	0.5%	1.9	3.4	14%	2.5%
O=C(Oc1ccccc1)N1CCC2(CCCN(c3ncccn3)C2)CC1	/	-13%	/	3.4	/	/	1.0%
COc1ccc(/C=N/N2CCOCC2)cc1COc1ccc(F)cc1	-2%	-19%	-1.3%	1.6	-0.5	-5%	-1.4%
Cc1ccc(OCC(=O)N/N=C/c2ccncc2)cc1	5%	9%	-1.4%	-1.4	-3.3	-46%[inhibitor]	-0.9%
O=C(CCN1C(=O)c2ccccc2C1=O)Nc1sc2c(c1C(=O)NCc1ccco1)CCCC2	-5%	-9%	-2.6%	-2.1	-3.0	-58%[inhibitor]	30%[38.3 µM]
Cc1cc(C(=O)CSc2cccc[n+]2[O-])c(C)n1-c1ccccc1	-12%	-10%	/	1.1	-0.7	-4%[15.4 µM]	3.0%
O=C(NCCc1cccc(Cl)c1)c1cccc([N+](=O)[O-])c1	-19%	10%	-4.2%	0.1	6.6	10%[15.4 µM]	1.4%
CCOc1ccc(NC(=O)CCC(=O)c2ccc(OC)cc2)cc1	5%	-4%	-0.8%	-6.0	1.3	24%	-1.3%
CCCCN(CC)Cc1ccc(CNC(=O)Nc2ccc(F)cc2)o1	-2%	-3%	1.0%	0.7	-3.4	2%	0.5%[38.3 µM]
COC(=O)C1=C(C)N(c2cccc(C)c2)C(=O)/C1=C\c1cccs1	6%	7%	-2.1%	-1.5	0.2	0%	13%
CCCCCCOc1ccc(N2C(=O)CC(SCCN)C2=O)cc1 (stereo not drawn)	3%	-13%	/	4.4	8.3	-27%	4.2%
Cc1ccc(NC(=O)C2CC(=O)Nc3ncnn32)cc1Cl (stereo not drawn)	6%	0%	-0.6%	6.0	1.3	30%	3.5%
Cc1nnc(NC(=O)c2c(F)cccc2F)s1	1%	13%	0.7%	2.1	1.4	-39%[inhibitor]	0.4%
C=CCn1cc(F)c(=O)n(CC=C)c1=O	9%	19%	/	-1.8	1.0	?	-2.8%
O[C@H]1CN(CC2CCCCC2)[C@@H](c2ccccc2)C[C@@H]1n1cc(C2CC2)nn1	/	/	0.4%	/	1.1	-17%	3.4%
Cc1cccc(OCC(=O)N=Nc2c(O)[nH]c3ccc([N+](=O)[O-])cc23)c1	5%	-6%	1.3%	0.2	-0.3	-41%[inhibitor]	2.6%
COc1cccc(OC)c1-c1cnc(NC(C)=O)cn1	/	/	-1.9%	/	-6.0	/	0.4%
CCc1sc(C(=O)NNC(=O)c2cncc(Br)c2)cc1C	10%	/	0.8%	/	-5.9	3%[15.4 µM]	0.2%
O=C(NCCO[N+](=O)[O-])c1cccnc1	-2%	8%&29%	1.0%	?	5.1	/	1.0%
O=C(CCNS(=O)(=O)c1cccs1)Nc1nccs1	-14%	14%	-4.5%	4.7	-0.2	-27%	1.3%
Cc1ccc(NC2C(=O)NC(=O)NC2=O)cc1	5%	/	/	/	-2.2	-48%[inhibitor]	-3.3%
COc1ccc(NC(=O)C2=CC(c3cccs3)=NS(=O)(=O)N2C)cc1	-9%	18%	2.7%&-3.9%	1.1	-4.2	10%	2.8%&-1.3%
COc1cccc(C2CC(=O)Nc3cc4c(cc32)OCCO4)c1OC(C)C (stereo not drawn)	-5%	6%	-0.9%	-0.2	-0.2	-39%[inhibitor]	2.8%
Cc1ccc(S(=O)(=O)N2[C@@H](c3cccc(C)c3)C(C(=O)O)=C[C@H]2CC2CCCC2)cc1	-6%	/	0.2%	/	-0.5	/	-0.3%
O=C(CSCCc1ccccn1)Nc1ccc(Br)cn1	0%	8%	-1.8%	3.2	-0.2	27%	6.5%[38.3 µM]
COc1cccc(NC(=O)COc2cc(O)c3c(c2)OC(C)(C)CC3=O)c1	-16%	-7%	-0.3%	-5.0	7.1	/	0.3%
CCC(/C=N/NC(=O)c1ccccc1F)CC	5%	2%	/	-5.0	-0.4	6%[15.4 µM]	0.4%
CC(=O)N1C2=CCCC3CCCCC23c2ccccc21 (stereo not drawn)	-30%	/	2.2%	/	-1.9	-1%	1.0%
COc1ccc(N2Cc3cccc(C(=O)NC(C)CCc4ccco4)c3C2=O)cc1 (stereo not drawn)	-16%	45µM*	-19%	2.2	2.2	-36%[inhibitor]	0.5%
CS(=O)(=O)N(CC(=O)N1CCOCC1)c1cc(Cl)ccc1Cl	17%	0%	-0.2%	1.5	-10	29%	0.4%
O=C(O)c1ccccc1C(=O)NNc1ccc(F)cc1	7%	?	-0.4%	1.3	-4.3	-29%	-2.2%
Cc1ccc(NC(=O)c2oc3ccccc3c2NC(=O)c2ccc3c(c2)OCO3)cc1	-12%	-6%	?	3.2	-0.2	10%	14%[38.3 µM]
COc1ccc(CNc2nccn3ccnc23)cc1	/	/	-1.3%	/	-3.0	/	1.3%
O=C(CN1CCN(C(=O)c2cncn2-c2ccc(F)cc2)CC1)Nc1ccccc1C(F)(F)F	0%	/	-0.2%	/	1.3	-26%	2.5%
CCc1noc(C)c1C(=O)N1CCN(S(=O)(=O)c2ccccc2C(F)(F)F)CC1	5%	/	1.4%	/	-0.4	11%	1.3%
Cc1ccc(C)c(OCCC(=O)OCC(=O)NC2CCS(=O)(=O)C2)c1 (stereo not drawn)	0%	/	-1.3%	/	0.8	-27%	0.4%
CCC(C)NCCCOc1ccc(C)cc1OC (stereo not drawn)	-5%	-6%	/	-4.9	-4.6	6%[15.4 µM]	0.9%
CNC(=S)N(CCc1c(C)[nH]c2ccc(C)cc12)Cc1ccc(OC)c(OC)c1	-15%	-13%	3.0%	-2.0	0.2	4%	0.7%
COc1cc(OC)cc(-c2nc(-c3ccc(Br)cc3)no2)c1	20%	11%	-1.5%	3.7	0.2	10%	0.7%[38.3 µM]
CCc1ccccc1NC(=O)NCCN1CCCCC1	11%	-3%	/	-2.1	-3.1	-30%	-0.9%

A different layout for 2 compounds above.
The line under a structure holds: gsp antag | Sfp PPTase inh | ClpP mod | Menin MLL FP FL | D2 agonist | gsp ag | PINK1 expr mod
O=C(CCNS(=O)(=O)c1cccs1)Nc1nccs1
→ -14% | 14% | -4.5% | 4.7 | -0.2 | -27% | 1.3%
COc1ccc(NC(=O)C2=CC(c3cccs3)=NS(=O)(=O)N2C)cc1
→ -9% | 18% | 2.7%&-3.9% | 1.1 | -4.2 | 10% | 2.8%&-1.3%

Later entries
structure	gsp antag	Sfp PPTase inh	ClpP mod	Menin MLL FP FL	D2 agonist	gsp ag	PINK1 expr mod
COc1ccc(C(=O)OCc2ccccc2C#N)cc1S(=O)(=O)N1CCOCC1	/	/	-0.9%	/	-3.2	-43%[inhibitor]	-0.9%
CCc1ccc(NC(=O)C2C3CCC(O3)C2C(=O)O)cc1 (stereo not drawn)	6%	-6%	1.7%	-4.3	-0.7	1%	12%
COC(=O)C1=C(C(=O)OC)[C@@H]2N(C)c3ccc(OC)cc3[C@@]23C[C@@H](C(=O)OC)N(C(=O)c2ccco2)C3=N1	3%	4%	0.0%	-0.8[11.7 µM]	-2.7	/	-0.5%
N#CC(C#N)=C1CCCc2sccc21	-3%	/	-13%	/	-3.5	6%	-2.3%
CCCSCC(=O)Nc1ncc2c(n1)-c1ccccc1CC2	9%	-11%	/	?	2.0	20%	6.0%
COc1ccccc1CN1C[C@@H]2C[C@@H](C3=Cc4cc(Cl)ccc4OC3)N3CCC[C@@]23C1=O	?	-17%	-2.2%	9.1	-1.4	15%	29%
CCOC(=O)C1C(C(=O)OC)=C(c2ccc(OC)cc2)c2ccccc2N1S(=O)(=O)C(F)(F)F (stereo not drawn)	-12%	-3%	-20%	-1.9	-0.5	/	0.7%
CCOc1ccc([C@@H]2CC=C(C(=O)O)CN2S(=O)(=O)c2ccc(C)cc2)cc1	-18%	/	1.3%	/	-0.6	-50%[inhibitor]	1.1%
COc1ccc(NC(C)=O)cc1NC(C)C(=O)Nc1ccccc1F (stereo not drawn)	-4%	-14%	0.0%	4.5	2.2	-4%	-3.1%
COc1cccc(N2CCN(C3C4CC5CC(C4)CC3C5)CC2)c1 (stereo not drawn)	2%	-7%	-1.2%	-1.1	-0.6	2%	0.9%
Cc1cc(F)ccc1C(O)c1ncc(-c2cccc(F)c2)[nH]1 (stereo not drawn)	/	/	-0.4%	/	-4.7	/	1.3%
c1cncc(-c2nc(NCc3ccc4c(c3)OCO4)c3ccccc3n2)c1	-10%	45µM*	-2.2%	3.9	1.0	-25%	3.1%
CC(C)C(=O)Nc1ccc(NC(=O)c2ccc(COc3ccccc3)cc2)cc1	15%	16%	-2.7%	5.6	-0.8	-1%[15.4 µM]	?
COC(=O)c1c(C(=O)OC)c2c(-c3ccccc3)cc3cccc1n32	/	/	4.2%	/	-3.2	24%	1.0%
CC1CCCC(NC(=O)CCC(=O)NCc2ccccc2)C1C (stereo not drawn)	3%	4%	0.0%	2.2	3.5	?	-0.6%
CCOC(=O)C1=C(O)/C(=C\c2cc(C)n(-c3ccccc3F)c2C)N=C1C	2%	-22%	/	?	-4.5	12%[15.4 µM]	3.5%
CC1(c2ccc3c(c2)OCCO3)NC(=O)N(CC(=O)Nc2ccccc2)C1=O (stereo not drawn)	15%	/	0.7%	/	1.8	-3%	1.4%
CSc1nc(C)cc(NC(N)=O)n1	6%	13%	0.5%	14	2.6	-1%	-0.4%
